# High-throughput results (PubChem BioAssay)
# CBX7 inh = CBX7 inhibition, primary AlphaScreen; O95931; AlphaScreen His6-CBX7 / biotin-H3K27me3 peptide binding; hits give low values; normalised signal (fraction of DMSO) (concentration not given with the values); actives 1.1% (n = 66,000); AID 1224903; in the data active = normalised signal below about 0.5;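 note: 100 nL library stock added to about 20 µL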
# Target sequence (O95931 whole entry, looked up): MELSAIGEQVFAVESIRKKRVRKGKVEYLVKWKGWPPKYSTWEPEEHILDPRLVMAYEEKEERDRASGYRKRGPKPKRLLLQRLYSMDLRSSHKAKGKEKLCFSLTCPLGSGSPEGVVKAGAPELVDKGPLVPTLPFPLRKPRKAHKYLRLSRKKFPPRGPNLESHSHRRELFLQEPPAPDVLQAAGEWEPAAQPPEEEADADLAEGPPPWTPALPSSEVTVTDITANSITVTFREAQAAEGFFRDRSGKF
# CBX7 inh z-score = also measured in CBX7 inh; calls as there; z-score; measured here: z-score of CBX7 signal; some inactives read as strong as hits; reference of the scale not given here;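 same signal on another scale; lower means less binding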
# * = called active by the depositor; & = joins results of further samples.
# The first 5 entries, ahead of the listing:
SMILES	CBX7 inh	CBX7 inh z-score
CCOc1ccc(NC(=O)C(=O)NCCc2c[nH]c3ccccc23)cc1	0.79	-2.3
CCOCCn1cnc2sc(C(=O)NCCCN3CCOCC3)c(C)c2c1=O	1	1.3
CCN(C(=O)Cn1nc(Cc2cccnc2)c2ccccc2c1=O)c1cccc(C(F)(F)F)c1	1	0.21
COc1ccc(NC(=O)Cn2nnc(-c3ccccc3F)n2)c(OC)c1	1	0.69
Cc1cc(NC(=O)CSc2nnc3c(n2)[nH]c2ccccc23)no1	0.7	-4.1

# Results, from the first entry:
SMILES	CBX7 inh	CBX7 inh z-score
CCOc1ccc(NC(=O)C(=O)NCCc2c[nH]c3ccccc23)cc1	0.79	-2.3
CCOCCn1cnc2sc(C(=O)NCCCN3CCOCC3)c(C)c2c1=O	1	1.3
CCN(C(=O)Cn1nc(Cc2cccnc2)c2ccccc2c1=O)c1cccc(C(F)(F)F)c1	1	0.21
COc1ccc(NC(=O)Cn2nnc(-c3ccccc3F)n2)c(OC)c1	1	0.69
Cc1cc(NC(=O)CSc2nnc3c(n2)[nH]c2ccccc23)no1	0.7	-4.1
CC(C)c1ccc(NC(=O)CCN2C(=O)c3ccncc3C2=O)cc1	1	1.1
COc1ccc(CNc2nc(SCC(=O)NC3CCCCC3)nc3ccccc23)cc1	1	-0.16
CCOC(=O)c1cnc2cc(C(F)(F)F)ccc2c1N(C)Cc1ccccc1	1	0.71
COc1cc(OC)cc(C(=O)NCCc2cc3cc(C)c(C)cc3[nH]c2=O)c1	1	0.25
CCCN(C(=O)Cn1nc(Cc2ccncc2)c2ccccc2c1=O)c1ccc(F)cc1	0.99	-0.4
O=C(Cn1nc(Cc2cccnc2)c2ccccc2c1=O)Nc1ccc(F)c(Cl)c1	0.96	-0.85
COc1ccc(-c2cc(C(=O)NC3CCCCC3)no2)cc1	1.3	1.9
CCOC(=O)c1ccccc1NC(=O)c1sc2ncn(CC(=O)N3CCC(C)CC3)c(=O)c2c1C	0.97	-0.19
CCN(CCNC(=O)Cn1nc(-c2ccccc2)ccc1=O)c1ccccc1	0.97	-1.6
CC1(C)OC2OC(C(=O)Nc3ccc(Cl)cc3)C3OC(C)(C)OC3C2O1 (stereo not given)	0.95	-0.73
O=C(CN1C(=O)CC(c2ccccc2)Sc2ccccc21)N1CCCC1 (stereo not given)	1.2	2.6
CCc1ccc(Sc2cc(C(=O)NCCCOC)c3ccccc3n2)cc1	1.1	2.2
CC1CCCCN1CCCNC(=O)c1ccc2c(c1)NC(=O)CN2C (stereo not given)	0.92	-1.1
CCOCCCNC(=O)CN1CCN(Cc2ccc(Cl)cc2)C1=O	0.89	-1.4
Cc1oc(-c2cccs2)nc1CN1CCCC(C(=O)NCc2ccccc2Cl)C1 (stereo not given)	0.93	-3.3
COCCCNC(=O)c1oc2ccc(S(=O)(=O)N3CCOCC3)cc2c1C	1	0.19
CCOc1ccc(CCNC(=O)CN2C(=O)C(CC)Oc3ccc(C)cc32)cc1OCC (stereo not given)	1	1.6
CC(C)c1ccc(C2NC(=O)c3[nH]nc(-c4ccccc4)c32)cc1 (stereo not given)	1	0.32
COc1ccc(CCNC(=O)c2ccc3c(c2)N=C(C)c2cc(Cl)ccc2S3)cc1OC	0.89	-1.7
CC1CCN(S(=O)(=O)c2ccc3c(c2)N(CC(=O)NC2CCCCCC2)C(=O)CS3)CC1	1	0.61
CCCCNC(=O)c1cc(Nc2cc(C)cc(C)c2)nc2ccccc12	1.1	2
COc1ccc(-c2nc3ccccc3c(C(=O)NCc3ccc(Cl)cc3)c2C)cc1	1	0.2
Cc1ccccc1-c1nnc(NC(=O)c2ccccc2Cl)s1	1	0.14
CCOc1ccc(-n2c(=O)c3sccc3n(CC(=O)NCCc3ccc(OC)c(OC)c3)c2=O)cc1	0.87	-2.2
Cc1ccccc1CSc1nnc(Cc2cc(=O)[nH]c(=O)[nH]2)n1-c1ccc(Cl)cc1	0.86	-2.2
Cc1nc2ccccn2c1-c1csc(Nc2ccc(N(C)C)cc2)n1	0.47*	-19*
Cc1cc(N(C)C2CCCCC2)n2nc(C)c(-c3ccc(Cl)cc3)c2n1	1.9	9.2
CC(CCc1ccccc1)NC(=O)c1ccc(Cl)c(NC2=NC3CS(=O)(=O)CC3S2)c1 (stereo not given)	1.1	1.3
COc1ccc(Cl)cc1NC(=O)Cc1c(C(=O)O)[nH]c2ccccc12	1.1	1.4
CC(=O)Nc1ccccc1-c1nc2ccc(C(=O)NCCCc3ccccc3)cc2[nH]c1=O	1	0.86
Cc1cccc(N2CCN(C(=O)C3CCN(C(=O)c4cc5sccc5n4C)CC3)CC2)c1C	0.83	-3
O=C(Nc1nnc(COc2ccc(C3CCCCC3)cc2)s1)c1cccs1	1	0.13
COc1cccc(-n2ccnc2SCC(=O)Nc2cccc(F)c2)c1	0.94	-1.1
CC(C)c1ccc2oc(-c3ccc(NC(=O)Cc4ccccc4)cc3)nc2c1	1.1	1.8
Cc1nonc1NC(=O)CCN1CCCCC1	1.1	2.6
CCCC1=Nc2cc(C(=O)N3CCN(c4ncccn4)CC3)ccc2Sc2ccccc21	0.88	-6.1
Cc1c(Cl)cccc1NC(=O)Cn1c(SCc2ccc(F)cc2)nc2ccncc21	1.2	1.8
COc1ccc(OC)c(NC(=O)C2CCCN(S(=O)(=O)c3cccnc3)C2)c1 (stereo not given)	0.99	-0.39
O=C(Nc1cc(-c2nc3ccccc3o2)ccc1Cl)c1cc2ccccc2o1	0.99	-0.24
CCOc1ccc(CNC(=O)c2cc(=O)[nH]c3ccccc23)cc1	1.1	3.5
Cc1ccc(OCC(=O)Nc2c(C(=O)c3ccccc3)oc3ccccc23)cc1	1.1	0.45
CCOC(=O)c1c(NC(=O)c2cccc(F)c2)sc2c1CCCC2	0.98	-0.098
O=C(Cn1nc(Cc2cccnc2)c2ccccc2c1=O)N1CCOCC1	1.1	0.1

# Some values from the results shown.
# `O=C(Nc1cc(-c2nc3ccccc3o2)ccc1Cl)c1cc2ccccc2o1` @ CBX7 inh = 0.99
# `Cc1ccc(OCC(=O)Nc2c(C(=O)c3ccccc3)oc3ccccc23)cc1` @ CBX7 inh = 1.1

# Shown with each value named: part of the list above
canonical_smiles: O=C(Cn1nc(Cc2cccnc2)c2ccccc2c1=O)N1CCOCC1
  CBX7 inh: 1.1 | CBX7 inh z-score: 0.1
canonical_smiles: CCOc1ccc(CNC(=O)c2cc(=O)[nH]c3ccccc23)cc1
  CBX7 inh: 1.1 | CBX7 inh z-score: 3.5
canonical_smiles: CCOC(=O)c1c(NC(=O)c2cccc(F)c2)sc2c1CCCC2
  CBX7 inh: 0.98 | CBX7 inh z-score: -0.098
canonical_smiles: O=C(Nc1cc(-c2nc3ccccc3o2)ccc1Cl)c1cc2ccccc2o1
  CBX7 inh: 0.99 | CBX7 inh z-score: -0.24

# (listing goes on)
SMILES	CBX7 inh	CBX7 inh z-score
CCC(C(=O)N1CC(=O)Nc2ccc(F)cc2C1c1ccccc1)c1ccccc1 (stereo not given)	0.98	-0.032
COc1ccc(C2CC(=O)C3=C(C2)Nc2ccccc2NC3c2cc(Br)ccc2OC)cc1 (stereo not given)	0.9	-0.65
COc1ccc(-n2nc(C(=O)N3CCC(C)CC3)c3ccccc3c2=O)cc1	1.1	1.1
CCc1ccc(-c2nc(CN3CCCC(C(=O)NCc4ccc(Cl)cc4)C3)c(C)o2)cc1 (stereo not given)	1.1	0.094
c1ccc(CSc2nnc(-c3cccnc3)n2Cc2ccccc2)cc1	1.1	2
COc1ccc(CCNC(=O)CCc2cn(C)c3ccccc23)cc1OC	1	1.8
COCCCNC(=O)CCN1N=C(c2ccc(OC)cc2)CCC1=O	1.1	1.1
CCOc1ccc(NC(=O)c2cnc3sccn3c2=O)cc1	0.86	-1.7
Cc1cccc(C)c1NC(=O)C(c1ccccc1)N1CC(C)CC(C)C1 (stereo not given)	0.94	-1.4
COc1cc2ccccc2cc1C(=O)Nc1cccc(-c2nc3cc(C)c(C)cc3o2)c1	1.1	2.3
COc1ccc(N2CCN(c3oc(COc4ccc(Cl)cc4)nc3C#N)CC2)cc1	0.56	-13
Cc1ccc2c(c1)-c1c(cnn1CC(=O)Nc1ccc(Br)cc1C)CO2	0.98	-0.51
FC(F)(F)c1cccc(-c2nc(-c3c[nH]c4ccccc34)[nH]c2-c2ccccc2)c1	0.64	-9
CCc1ccc(N(C)S(=O)(=O)c2ccc3[nH]cc(C(=O)N4CCCCC4)c(=O)c3c2)cc1	1.1	0.58
O=C(c1cc2nc3c(c(C(F)(F)F)n2n1)CCc1ccccc1-3)N1CCCC1	1.1	0.54
Cc1ccn2c(NC(=O)c3c(F)cccc3Cl)c(-c3ccc(F)cc3)nc2c1	1.2	1.5
O=C(CCCn1c(=O)[nH]c2ccsc2c1=O)N1CCN(c2cccc(C(F)(F)F)c2)CC1	0.94	-0.3
O=C1c2ccccc2-c2onc3c(N4CCOCC4)ccc1c23	0.79	-4
CCCCN(CCCC)CCCNC(=O)c1ccc2c(c1)NC(=O)c1ccccc1S2	1.1	1.1
O=C(NC1CCCCCC1)c1c[nH]c2ccc(S(=O)(=O)Nc3ccc4c(c3)OCCO4)cc2c1=O	0.93	-0.91
CC(C)(O)C#Cc1ccc(C(=O)N2CCC(C(N)=O)(N3CCCCC3)CC2)cc1	1&1.1	1.7&0.91
Cc1ccc(C2=CC(Cl)=C(c3cccs3)Oc3ccccc32)cc1	1	0.051
COc1cccc(C(=O)Nc2c3c(nn2-c2ccc(F)cc2)CSC3)c1OC	0.92	-1.4
Cc1ccccc1Nc1nc2ccccc2nc1NS(=O)(=O)c1ccc(Cl)cc1	1	0.36
O=C(CCCCCN1C(=O)c2ccccc2C1=O)Nc1ccc(Br)c2cccnc12	0.98	-0.27
COc1ccc(-c2csc(Nc3ccc(C)cn3)n2)cc1C	0.68	-3.8
Cc1ccc(OCc2nc(-c3ccccn3)no2)c(Br)c1	1	0.017
CCOC(=O)N1CCC(Nc2c(N3CC(C)CC(C)C3)c(=O)c2=O)CC1 (stereo not given)	0.84	-1.9
Cc1ccc(NC(=O)C2CCCN(S(=O)(=O)c3cnc[nH]3)C2)cc1F (stereo not given)	1	-0.047
O=C(NCCCN1CCOCC1)C1CC(=O)N(CCc2ccccc2)C1 (stereo not given)	1	0.41
Cc1ccc(-n2c(Cc3cccn3C)nnc2SCC(=O)Nc2ccccc2C(F)(F)F)cc1	0.91	-2.1
Cc1ccccc1OCc1nc2ccccc2n1Cc1ccccc1Cl	1.1	5.6
CCCCc1ccc(-c2nc(Nc3ccc(Cl)cc3)c3ccccc3n2)cc1	1.4	8.1
CCOC(=O)c1cnc2[nH]c3ccccc3n2c1=O	1.1	1.4
Cc1ccc(C)c(N(C)C(=O)Cc2c(C(=O)O)[nH]c3ccccc23)c1	0.93	-0.27
CN1CCN(c2ccccc2NC(=O)Cc2cn(C)c3ccccc23)CC1	1	-0.11
CCC(C)(C(=O)Nc1c(C)cccc1C)N(CCc1c[nH]c2ccccc12)C(=O)c1ccccn1 (stereo not given)	0.86	-2.6
COc1cc2c(=O)c(S(=O)(=O)c3ccccc3)cn(Cc3ccc(C)cc3)c2cc1OC	0.86	-2.7
CCOCCCNC(=O)c1cnn2c(C)c3c(nc12)CCCC3	0.99	-0.37
CCC(=O)N1c2ccc(S(=O)(=O)NCc3ccc(F)cc3)cc2CC1C (stereo not given)	0.84	-0.65
COc1cc2c(c(OC)c1)C(c1ccccc1Cl)CC(=O)N2 (stereo not given)	0.87	-0.17
COc1ccc(CNC(=O)C2CCCN(C(=O)N(C)C)C2)c(OC)c1 (stereo not given)	1.1	1.2
Clc1ccc(-c2noc(-c3ccccc3Br)n2)cc1	1.1	2.2
CCc1ccc(NC(=O)CSc2nnc(CNC(=O)c3ccccc3F)o2)cc1	1	-0.084
CN1CC(=O)Nc2cc(C(=O)NCCc3ccccc3)ccc21	1.1	0.072
Clc1ccc(-n2ncnc2-c2ccc3c(c2)OCO3)cc1	0.97	-0.69
CN(C)S(=O)(=O)c1ccc(C(=O)Nc2ccc(S(=O)(=O)N3CCCCC3c3cccnc3)cc2)cc1 (stereo not given)	0.97	-0.27
COCCNC(=O)CSc1nc(-c2ccc(C)cc2)[nH]c1-c1ccc(C)cc1	0.9	-1.7
CC(C)c1ccc(-c2csc(NC(=O)CN3C(=O)CCC3=O)n2)cc1	1.1	1.1
O=C(CNc1ccccc1-c1nc2ccccc2[nH]c1=O)NCc1ccc(F)cc1	0.91	-1.5
COc1cc(C2C(=O)N(C3CCCCC3)CC(=O)N2Cc2ccc(F)cc2)ccc1OC(C)C (stereo not given)	1	0.049
Cc1cc2cc(CCNC(=O)c3ccccc3C(F)(F)F)c(=O)[nH]c2cc1C	1	0.69
COc1ccc(-c2cc(C(=O)NCCc3ccc(Cl)cc3)c3cc(C(C)C)ccc3n2)cc1	1	0.0035
Cc1ccc2c(c1)c1c3n2CCN(C(N)=O)C3CCC1 (stereo not given)	0.97	-0.9
Cc1sc2ncn(CC(=O)NC3CCCCC3)c(=O)c2c1S(=O)(=O)N1CCC(C)CC1	1.2	2.1
COc1ccc(C2C(Oc3ccccc3C)C(=O)N2Cc2ccc(F)cc2)cc1OC (stereo not given)	0.91	-0.33

# Additional structures
SMILES	CBX7 inh	CBX7 inh z-score
Cc1cc(OCC(=O)NCCc2nc3ccccc3[nH]2)ccc1Br	1.2	2.4
Cc1ccc(NC(=O)Nc2cc3sccc3n2C)c(C)c1	1	0.089
O=C(NCc1ccc2c(c1)OCO2)C1CCCN(S(=O)(=O)c2cccnc2)C1 (stereo not given)	0.99	-0.19
COc1cc(OC)cc(C(=O)Nc2cccc(-c3nc4ncccc4o3)c2)c1	0.88	-0.79
CCN(CC)CCNC(=O)c1cn(C2CCCCC2)c(=O)c2c1c1ccccc1n2C	0.96	-1.1
C#CCOc1ccc(-c2nnc(Nc3ccc(O)cc3)c3ccccc23)cc1	0.94	-0.29

# Only part of the results is shown; count on the stated rates, not on these rows.
